HSD17B inh – HSD17B dehydrogenase inhibition | AID 893 | 75,000 tested, 7.6% active | recombinant HSD17B10, NADH fluorescence kinetic; many of its hits are not listed in these tables | Potency, µM (top dose mostly 57.1 µM), for inactives: at the highest dose activity change, negative = inhibition, hits mostly inhibitors | Q99714; active = well fitted inhibition curve with a large enough effect; inconclusive = small, poorly fitted or top-dose-only effect; inactive = no such curve, though single readings can be large or run the other way;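 note: the protocol describes HADH2 (HSD17B10) and not the HSD17B4 of the title; nearly all actives have a fitted effect of over 70% in size; most hits overshoot -100% by far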
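His-tagged E. coli-expressed HADH2 at 20 nM in 100 mM Tris-HCl pH 9.0 with 0.01 % Tween-20, preincubated 15 min with compound at room temperature. Reaction with 1 mM NAD+ and 90 uM beta-hydroxybutyryl coenzyme A; NADH fluorescence (360/450 nm) read kinetically over 4 min, last minus first point.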
Numbers without * were called inactive; u = inconclusive; & = joins results of further samples; [ ] = remark or other dose. % is set by controls: 0 for no effect and ±100 for the full control effect; potency is the fitted concentration of half-maximal effect.

item | compound | HSD17B inh
1 | CCN(CC)C(=O)CSc1nnc(CCNC(=O)OC(C)(C)C)o1 | 5%
2 | COc1cc2c(cc1OC)C(c1ccc(N)cc1)=NNC(=O)C2 | -13%
3 | Cn1c(=O)oc2cc(S(=O)(=O)N3CCC(C(=O)N4CCN(c5ccccc5)CC4)CC3)ccc21 | 6%
4 | CCCCCCCCCCCCCC(=O)O[C@H](CC(=O)O)C[N+](C)(C)C | -8%
5 | COCc1cc(=O)n2[nH]c(C)cc2n1 | 25µM*
6 | CCSc1ccccc1C(=O)Nc1cccc(OC)c1 | 3%
7 | NCCNC(=S)S | -20%[11.4 µM]
8 | CCOc1cc(N2CCOCC2)c(OCC)cc1NC(=O)Cc1cn2ccsc2n1 | 3%
9 | Cc1cccc(C)c1N1CCN(S(=O)(=O)c2ccc(F)cc2)CC1 | 7%
10 | CCC(=NCCN1CCNCC1)C1=C(O)CC(C)(C)CC1=O | 3%
11 | c1ccc(C(Cc2nc(-c3cccnc3)no2)c2ccccc2)cc1 | -4%
12 | CCOC(=O)c1ccc2c(c1)C1C=CCC1C(C(=O)O)N2 (stereo not drawn) | 3.2µM*
13 | Cc1noc(C)c1C(=O)N1CCC2(CCCN(c3ncccn3)C2)CC1 | u
14 | Cc1cccc(CNc2nc(-c3c(C)noc3C)nc3ccccc23)c1 | u
15 | O=S(=O)(Cc1ccccc1)N1CCN(Cc2ccccc2)CC1 | 2%
16 | Nc1ncnc2c1nc(Cl)n2C1OC(CO)C(O)C1O (stereo not drawn) | 0%
17 | COc1ccc(C2C(C(=O)N3CCN(C)CC3)c3ccccc3C(=O)N2C2CCCCC2)cc1 (stereo not drawn) | 15%
18 | COc1cc(C(=O)OCCCN2CCCN(CCCOC(=O)c3cc(OC)c(OC)c(OC)c3)CC2)cc(OC)c1OC | -18%
19 | CCOC(=O)N1CCC(NC(=O)c2cnn3c2NC(c2ccco2)CC3C(F)(F)F)CC1 (stereo not drawn) | -7%
20 | Nc1nnc(SCc2cccc(C(F)(F)F)c2)s1 | -2%
21 | O=C(C1CCN(S(=O)(=O)c2cccnc2)CC1)N1CCN(c2ccccc2Cl)CC1 | 2%
22 | CCOC(=O)CSc1nnc(CNC(=O)c2cccs2)n1-c1cc(OC)ccc1OC | 12%
23 | CCOP(C)(=O)C1(C(=O)OCc2ccccc2)CC1 (stereo not drawn) | 0%
24 | CN(C)C(CNC(=O)CCCc1c[nH]c2ccccc12)c1ccco1 (stereo not drawn) | 2%
25 | O=C(O)c1ccc(CSCc2ccco2)cc1 | -8%
26 | Cc1ccc(CN2CCN(CC(=O)NCc3ccc(Cl)cc3)C2=O)cc1 | 21%
27 | O=C(CCC1CCCC1)Nc1ccc(Br)cn1 | 11%
28 | Cc1ccsc1C=Nc1c(C)n(C)n(-c2ccccc2)c1=O | 7%
29 | Cc1cccc(OCC(=O)Nc2cccc(-c3nnc(-c4ccccc4)o3)c2)c1C | u
30 | O=C(O)CC[C@@H](C(=O)O)N1C(=O)c2ccccc2C1=O | u
31 | O=C(OCc1cc2ccccc2[nH]c1=O)C1CCCCC1 | -1%
32 | C[C@@]12CC[C@H]3[C@H](CC=C4C[C@@H](O)CC[C@@]43C)[C@@H]1CC[C@@H]2N(CCO)CCO | 13%[11.4 µM]
33 | CCOc1ncccc1C(=O)OCc1nnc(-c2ccccc2)o1 | 6%
34 | C/[N+]([O-])=C1\Cc2ccccc2C1=O | 6%
35 | O=C(c1ccco1)N1CCN(C(c2ccc(Cl)cc2)c2nnnn2CC2CCCO2)CC1 (stereo not drawn) | 6%
36 | C[C@@H]1C[C@H]2[C@H]3C[C@@H](F)C4=CC(=O)C=C[C@]4(C)[C@@]3(Cl)[C@@H](O)C[C@@]2(C)[C@@H]1C(=O)COC(=O)C(C)(C)C | 5%[25.6 µM]
37 | Cn1cnnc1Sc1nc2c(c(=O)n(C)c(=O)n2C)n1Cc1ccccc1Cl | -1%
38 | CCCCCn1c(SCC2CCCO2)nc2cc(C(=O)N3CCC(C(N)=O)CC3)ccc2c1=O (stereo not drawn) | -14%
39 | NC(=O)SCC(=O)Nc1ccc(Cl)c(Cl)c1 | -3%
40 | CN1CCN(/C=N/c2c(C#N)cnn2Cc2ccccc2)CC1 | 0%

Some values from the results shown.
For HSD17B inh, entry 38 shows -14%
For HSD17B inh, entry 35 shows 6%
For HSD17B inh, entry 32 shows 13%[11.4 µM]
For HSD17B inh, entry 39 shows -3%
For HSD17B inh, entry 37 shows -1%
For HSD17B inh, entry 31 shows -1%

(listing goes on)
item | compound | HSD17B inh
41 | CCN(CC)CCn1c(=S)[nH]c2ccc(Cl)cc2c1=O | 1%
42 | CC(C)Cn1c(CN2C(=O)c3ccccc3C2=O)nc2ccccc2c1=O | 1%
43 | Cc1c(NC(=O)C(C)N2CC(C)OC(C)C2)c(=O)n(-c2ccccc2)n1C (stereo not drawn) | 9%
44 | CCOC(=O)c1cccc(NC(=O)c2cccnc2)c1 | 5%
45 | CN(C)c1nc(N)c(C(=O)N=C(N)N)nc1Cl | -5%
46 | CCOc1ccc(CCNS(=O)(=O)c2cccc3nsnc23)cc1OCC | 2%
47 | O=C(CCC1=NS(=O)(=O)c2ccccc2N1)NC1CCCCCCC1 | 10%
48 | CCSC1(SCC)N=C(N)C2(C#N)C(c3ccccc3)NC(C)=CC12C#N (stereo not drawn) | 11%
49 | CCOCC(=O)Nc1ccc(S(=O)(=O)N2CCOCC2)cc1 | 4%
50 | NCCCS(=O)(=O)O | 11%&3%
51 | Cc1cc(NS(=O)(=O)Cc2ccccc2)no1 | 0%
52 | O=C(CSc1ncccc1C(=O)O)NCc1ccc(F)cc1 | 4%
53 | Cn1c2c(c3ccccc31)CC/C2=N\O | 1%
54 | O=C(c1csnn1)N1CCC[C@@]2(CCN(Cc3ccccc3)C2)C1 | -3%
55 | CCCCn1nnnc1SCC(=O)Nc1cccc(C)n1 | 3%
56 | O=C(Nc1ccc(N2CCOCC2)cc1)C1CCN(S(=O)(=O)Cc2ccccc2)CC1 | -7%
57 | CCCc1cc(C(=O)Nc2cccc(C(C)=O)c2)no1 | 12%
58 | Cc1cccc(CNc2cc(-c3c(C)noc3C)ncn2)c1 | 11%
59 | CCOC(=O)Cn1c(CCC(=O)O)ccc1-c1ccc(F)cc1 | 25µM*
60 | COc1ccc(N2C(=O)CCC(C(=O)N3CCCCCC3)C2c2ccc(OC)c(OC)c2)cc1 (stereo not drawn) | -7%
61 | COC(=O)Cn1ncc2c3ccccc3n(C)c2c1=O | u
62 | Cc1cc(C)nc(-n2nc(C)cc2NC(=O)c2cccc(S(=O)(=O)N(C)C)c2)n1 | 6%
63 | CCOC(=O)c1sc(NC(C)=O)c(C(=O)OCC)c1C | 1%
64 | FC(F)(F)c1cc(CN2CCCC3(CCNCC3)C2)cc(C(F)(F)F)c1 | 5%
65 | CCOC(=O)c1cnn2c(C)cc(-c3ccccc3)nc12 | 25µM*
66 | COc1ccccc1-c1cc(C(=O)N2CCN(c3ccc(F)cc3)CC2)no1 | 35%[activator]
67 | O=C1c2ccccc2S(=O)(=O)N1Cc1nc2ccccc2s1 | -3%
68 | CCOC(=O)N1CCC(NC(=O)c2cc(S(=O)(=O)N3CCc4ccccc43)cn2C)CC1 | 9%
69 | COc1ccc(CCn2c(C)cc3c(c2=O)C(c2ccncc2)C(C#N)=C(N)O3)cc1OC (stereo not drawn) | 3%
70 | O=C(NC1CCCCC1)C1CCCN(S(=O)(=O)c2cccs2)C1 (stereo not drawn) | 6%

Reformatted with each value named: part of the list above
#61 COC(=O)Cn1ncc2c3ccccc3n(C)c2c1=O
  HSD17B inh = u

#62 Cc1cc(C)nc(-n2nc(C)cc2NC(=O)c2cccc(S(=O)(=O)N(C)C)c2)n1
  HSD17B inh = 6%

#63 CCOC(=O)c1sc(NC(C)=O)c(C(=O)OCC)c1C
  HSD17B inh = 1%

#64 FC(F)(F)c1cc(CN2CCCC3(CCNCC3)C2)cc(C(F)(F)F)c1
  HSD17B inh = 5%

(more compounds)
item | compound | HSD17B inh
71 | COc1ccccc1Nc1nc(N)nc(CN2CCC(Cc3ccccc3)CC2)n1 | -1%
72 | Cc1ccc(-n2nc3c(c2NC(=O)c2ccc4c(c2)OCO4)CSC3)cc1 | u
73 | Cn1c(=O)c2c(nc(CN3CCN(c4ccccc4)CC3)n2Cc2ccccc2Cl)n(C)c1=O | 10%
74 | O=C(NC12CC3CC(CC(C3)C1)C2)N1CCC(n2nnc3ccccc32)CC1 | 3%
75 | Cc1cc(C(=O)CSc2nnc(-c3ccco3)o2)c(C)n1Cc1ccco1 | 16µM*
76 | COCCNC(=O)c1cnn2c(C(F)(F)F)cc(-c3ccc4c(c3)OCO4)nc12 | 9%
77 | CCc1nc(C)ccc1OCC(=O)NCCCN(C)C | 8%
78 | C1CCC2(CC1)OCC1(CO2)COC2(CCCCC2)OC1 | 10%
79 | Cc1occc1C(=O)Nc1nccs1 | -4%
80 | CCOC(=O)CSc1nnc(Cc2cc(=O)[nH]c(=O)[nH]2)n1-c1ccc(Cl)cc1 | -1%
81 | Cc1ccc(-n2nnc3c(SCC(=O)NCC4CCCO4)ncnc32)cc1 (stereo not drawn) | -5%
82 | CN(C)C=Nc1ncc2c3ccccc3n(CCN(C)C)c2c1C#N | u
83 | CS(=O)(=O)NCc1csc(-c2ccccc2)n1 | 2%
84 | O=C(Nc1ccc2snnc2c1)N1CCOCC1 | -22%
85 | CCC(Oc1ccccc1)C(=O)Nc1ccc(-c2nnc(-c3ccco3)o2)cc1 (stereo not drawn) | 32µM*
86 | CC(C)(CO)N1CCN(C(=S)Nc2ccccc2)CC1 | 5%[11.4 µM]
87 | N#Cc1nc(COc2ccc(Cl)cc2)oc1N1CCCCCC1 | 1%
88 | CCOc1ccc(OCC)c(NC(=O)CSc2nnc(Cn3cnc4ccccc43)n2C)c1 | 4%
89 | CCOC(=O)COn1c(=O)c(=O)n(OC)c2ccccc21 | -1%
90 | O=C(C1CCC(Cn2c(=S)[nH]c3ccccc3c2=O)CC1)N1CCOCC1 (stereo not drawn) | 6%
91 | CNc1ncnc2c1ncn2[C@@H]1O[C@H](CO)[C@@H](O)[C@@H]1O | 0%[25.6 µM]
92 | Cc1cc(C(=O)N2CCN(C(c3ccccc3)c3ccccc3)CC2)on1 | -6%
93 | CCS(=O)(=O)N1CCC(NC(=O)C2CCCCC2)CC1 | 13%
94 | Cc1ccc(C(C(=O)NC2CCCCC2)N2CCOCC2)cc1 (stereo not drawn) | 8%
95 | CN(C)c1ccc(-c2nccc(NCc3ccccc3)n2)cc1 | 20µM*
96 | O=C(CSc1nnc(-c2ccccc2)o1)OCc1ccccc1 | 11%
97 | CCOC(=O)N1CCC(N2C(=O)c3ccccc3C2Nc2cc(OC)c(OC)c(OC)c2)CC1 (stereo not drawn) | -3%
98 | CCC(c1ccc(O)cc1)C(CC)c1ccc(O)cc1 (stereo not drawn) | -3%
99 | COC(=O)c1ccccc1NC(=O)c1ccc(NS(C)(=O)=O)cc1 | -17%
100 | CCN(C(=O)CSc1nnc(Cn2nnc3ccccc32)o1)c1nc(-c2ccccc2)cs1 | 5%
101 | O=C(CCCNS(=O)(=O)c1cccc2nsnc12)N1CCCCC1 | 7%
102 | COc1ccc(-c2ncc3ccccn23)cc1 | 32µM*
103 | Cn1nnc2cc(C(=O)NCc3ccco3)ccc21 | 2%
104 | CCC1Oc2ccc(Cl)cc2N(CC(=O)O)C1=O (stereo not drawn) | 9%
105 | Cc1ccc(NC(=O)c2ccccc2F)nc1 | 32µM*
106 | CN(C)Cc1cc(C(=O)O)cc(CN(C)C)c1O | 0%[11.4 µM]
107 | Cc1ccc(S(=O)(=O)N2CCN(S(C)(=O)=O)C2c2ccccc2)cc1 (stereo not drawn) | 1%
108 | COc1cc(N)ccc1Cc1ccc(N)cc1OC | -1%
109 | COc1ccccc1S(=O)Cc1ccc(C(=O)NCCc2ccc(Cl)cc2)o1 (stereo not drawn) | -6%
110 | Cc1cccc(-n2nc3c(c2NC(=O)c2ccc(Br)o2)CSC3)c1C | u
111 | O=C(c1ccco1)N(CCCN1CCOCC1)c1nc(-c2ccc(Cl)cc2)cs1 | 53%[activator]
112 | C#CCCCO/N=C1/C[C@@H](O)[C@@H](O)[C@@H]2[C@@H]3C(=O)N(Cc4ccccc4)C(=O)[C@H]3CC[C@@H]12 | 0%[11.4 µM]
113 | O=C1[C@H]2[C@H]3[C@H](O)[C@H](O)C/C(=N/OCc4ccccc4)[C@@H]3CC[C@@H]2C(=O)N1Cc1ccc2c(c1)OCO2 | 6%[11.4 µM]
114 | CCOc1ccccc1NC(=O)Cn1c(=O)n(CCC(=O)NC2CCCC2)c(=O)c2ccccc21 | 11%
115 | Cn1c(=O)c2[nH]c(Nc3ccccc3)nc2n(C)c1=O | -16%
116 | C=CCSc1nc(N)c(C#N)c(-c2ccccc2)c1C#N | -28%
117 | Cc1ccc(NC(=O)CN(c2ccc3c(c2)OCO3)S(=O)(=O)c2c(C)n[nH]c2C)cc1 | -2%
118 | COc1ccc(-c2nnn(Cc3nc(N)nc(N4CCCCC4)n3)n2)cc1 | -4%
119 | CCOC(=O)N1CCN(C(=O)CSc2nnc(Cn3c(=O)sc4ccccc43)n2C)CC1 | 9%
120 | Cc1cc(C)n(-c2nc3ccccc3n3nnnc23)n1 | -2%

Continued:
item | compound | HSD17B inh
121 | Cc1cc(C)c(C(=O)CSc2n[nH]c(=O)n2C2CC2)cc1C | -13%
122 | COCCn1nnnc1C(c1ccc(OC)c(OC)c1)N1CCN(c2nc3ccccc3s2)CC1 (stereo not drawn) | 6%
123 | Cc1nn(-c2ccc(F)cc2)c2nc(N)c(C#N)c(-c3cccs3)c12 | u
124 | COC(=O)c1ccc(-n2nnnc2SCC(=O)Nc2ccccc2OC)cc1 | -4%
125 | COc1ccc(C(=O)N2CCN(c3cccc(Cl)c3)CC2)c(OC)c1 | 0%

High-throughput results from PubChem.

This is a subset (hit frequency here may not be typical).
